Beta apoptosis: inhibitors of cytokine-induced beta cell apoptosis, primary screen, luminescence; INS-1E cytokine-induced death, ATP luminescence, 48 h; percent of positive-control rescue, neutral wells zero; protection from apoptosis, % (concentration not given with the values); actives 0.8% (n = 300,000); AID 435005, 2010;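 active = all replicates at 75% or more, or half of them and the mean; inconclusive = half reach 75% but not the mean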;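 note: 0% = cytokine-treated negative control wells and 100% = positive control rescue; higher means more ATP so stronger rescue from cytokine killing; wells of about 40 µL received 100 nL stock; the first replicate is given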
UCH37 inh: inhibitors of human UCH37 deubiquitinase, primary screen, biochemical, Ub-AMC cleavage, fluorescence. inhibition, % (concentration not given with the values). actives 0.33% (n = 330,000). purified proteasome/UCH37. Ubiquitin carboxyl-terminal hydrolase isozyme L5 (Homo sapiens), Q9Y5K5;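 active = mean of two replicates above 20%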;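 note: 0% = compound-free wells with enzyme and 100% = wells lacking proteasome; stock transfer was 100 nL into about 20 µL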
Target sequence (Q9Y5K5 whole entry, looked up): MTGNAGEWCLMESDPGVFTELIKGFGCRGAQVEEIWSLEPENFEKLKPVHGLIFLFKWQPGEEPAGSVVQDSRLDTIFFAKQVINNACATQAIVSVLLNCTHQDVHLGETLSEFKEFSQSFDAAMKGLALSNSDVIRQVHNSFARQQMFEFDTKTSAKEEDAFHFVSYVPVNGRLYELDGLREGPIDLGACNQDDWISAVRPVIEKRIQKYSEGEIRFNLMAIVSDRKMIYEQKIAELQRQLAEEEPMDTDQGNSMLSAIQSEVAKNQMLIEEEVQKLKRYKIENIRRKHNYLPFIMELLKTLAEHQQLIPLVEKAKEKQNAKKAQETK
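assay system = human UCH37 enzyme supplied as purified proteasome complex | amount = proteasome at 0.15 nM in the dispensed enzyme solution | schedule = 30 min compound-proteasome preincubation then 25 min substrate reaction, room temperature | measured by = fluorescence, ex 355 nm, em 460 nm | benchmarks = no-proteasome wells (full inhibition) and compound-free wells (no inhibition)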
T cruzi repl: inhibitors of intracellular T. cruzi growth, primary screen, luminescence, NIH3T3 host cells. T. cruzi beta-gal in NIH3T3, 90 h. inhibition, % (test concentration not listed). actives 1.4% (n = 300,000). AID 1885, 2009;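 active = mean inhibition across valid replicates above about 55%, limit read from the data; inconclusive = mean below that limit but half or more replicates reach it; inactive = mean below it, under half of replicates reach it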;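 note: signal also drops with host cell toxicity which is not excluded here; 0% = plate median of DMSO wells and 100% = zero luminescence signal; higher percent means less beta-gal luminescence so fewer parasites; stock transfer was 50 nL into about 50 µL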
RanGTP-Imp inh: inhibitors of RanGTP-importin-beta interaction, primary screen, biochemical, FRET, CFP-Ran, YFP-importin-beta, homogeneous; AID 2216, 2009; actives 1.1% (n = 300,000); inhibition, % (no concentration beside the values); cell-free CFP-Ran/YFP-importin-beta FRET ratio; Ran GTPase (GTP-bound) - importin-beta complex;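 active = most replicates above 15%; inconclusive = exactly half above 15%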;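 note: 0% = DMSO wells and 100% = Ran loaded with GDP instead of GTP; wells of about 40 µL received 100 nL stock; the first replicate is given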
LANA-H2B inh: blockers of LANA interaction with H2A/H2B – biochemical, FP readout, HTS, primary screen; inhibition, % (test concentration not listed); actives 0.6% (n = 320,000); cell-free LANA-H2A/H2B peptide, fluorescence polarization; in the data active = inhibition mostly above about 10%, no sharp cut-off; inactive = mostly below about 6.7%;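 note: stock transfer was 7.5 nL into about 10 µL; 0% = median of vehicle wells and 100% = median of positive control wells; one replicate is shown; the record names a cut of 25% in any replicate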
Beta2AR agonist: beta2AR agonists driving receptor internalization, primary screen, cell-based, FAP fluorogen, flow cytometry; Beta-2 adrenergic receptor (Homo sapiens), P07550; Am2.2-beta2AR cells; reference of the scale not given here; response, % (concentration not given with the values); actives 0.43% (n = 340,000); AID 504454, 2011;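 active = response above a set limit, near 3 SD of response in nonfluorescent compounds, cut at about 42% in these data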;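 note: stock transfer was 100 nL into about 11 µL; a reference agonist was the positive control; negative values mostly stem from fluorescent compounds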
Target sequence (P07550 whole entry, looked up): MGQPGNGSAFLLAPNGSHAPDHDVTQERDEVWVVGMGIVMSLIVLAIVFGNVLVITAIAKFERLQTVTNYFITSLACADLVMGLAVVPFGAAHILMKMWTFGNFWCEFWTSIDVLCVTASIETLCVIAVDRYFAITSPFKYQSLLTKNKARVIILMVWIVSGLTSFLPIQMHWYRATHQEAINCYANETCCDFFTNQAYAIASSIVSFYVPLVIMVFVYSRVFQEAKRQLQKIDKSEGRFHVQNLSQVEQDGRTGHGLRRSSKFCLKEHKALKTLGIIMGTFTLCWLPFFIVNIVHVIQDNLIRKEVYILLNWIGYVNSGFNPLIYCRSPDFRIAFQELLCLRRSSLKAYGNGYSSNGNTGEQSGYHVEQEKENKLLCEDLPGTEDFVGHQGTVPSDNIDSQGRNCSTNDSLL
Bfl-1 A1 inh: caspase 3/7 activation in MEF A1-2A-BIM cells, primary screen, A1 inhibitor project, cell-based, luminescence, HTS; Caspase-Glo 3/7 luminescence, 3 h; percent of clofoctol response, vehicle zero; caspase activation, % (no concentration beside the values); actives 0.066% (n = 330,000);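 active = over half of replicate activation scores above 10%, or exactly half above 10 with the replicate mean above 10; inconclusive = replicate mean below 10 yet half the replicates above 10; inactive = over half of replicates below 10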;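 note: wells of about 30 µL received 50 nL stock; many hits fall short of the cut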
Calb FLC: C. albicans growth inhibition with fluconazole, primary screen, CaCi-2 strain, Alamar Blue fluorescence; C. albicans CaCi-2 (fluconazole-resistant clinical isolate) + fluconazole, 48 h; growth inhibition, % (no concentration beside the values); actives 0.57% (n = 300,000); AID 1979, 2009;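 active = most replicates above 75%; inconclusive = exactly half above 75%; inactive = most below 75%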;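 note: all wells also contain fluconazole at 8 µg/ml as a sub-toxic cotreatment; 0% = median of DMSO wells and 100% = median of geldanamycin control wells; wells of about 8 µL received 7.5 nL stock; the first replicate is given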
Active calls of the source: *; ? = inconclusive; / = not tested or not shown.

SMILES	Beta apoptosis	UCH37 inh	T cruzi repl	RanGTP-Imp inh	LANA-H2B inh	Beta2AR agonist	Bfl-1 A1 inh	Calb FLC
Oc1cc(O)cc(-c2cc3ccc(O)cc3o2)c1	-4.5	-40.6	-7.5	-3.1	0.2	-1.2	0.3	2.0
O=[N+]([O-])c1ccccc1NCCNS(=O)(=O)c1ccc(Cl)cc1	-4.7	2.3	0.0	-0.2	0.7	-3.2	-0.6	0.0
CCOC(=O)c1c(CSc2ccccc2)n(C)c2cc(Br)c(O)c(CN(C)C)c12	-3.5	3.7	19.2	-2.2	-4.4	-0.7	0.2	-9.6
COc1cccc(N2CC(C(=O)Nc3nnc(SCC(=O)NC4CCCC4)s3)CC2=O)c1 (configuration not stated)	1.5	3.0	-9.0	4.0	-2.4	-8.2	-0.7	-1.2
CC1=C(C(=O)OCCBr)C(c2cccc3ccccc23)NC(=O)N1 (configuration not stated)	-5.5	-0.1	3.3	-1.7	1.2	-1.4	-0.1	4.6
COc1ccc(CCNC(=O)COC(=O)C2CC2)cc1OC	-0.4	5.4	/	/	-1.0	3.7	0.3	/
CCOc1cc(C2C(C(=O)c3ccccc3)=C(C(=O)OC)Nc3nnnn32)ccc1O (configuration not stated)	-1.1	2.6	5.9	4.0	-4.3	-0.4	0.6	-2.2
Cc1ccc(Cl)cc1NC(=O)C1CCN(S(C)(=O)=O)CC1	/	5.0	-15.3	5.5	1.4	0.2	-0.6	1.0
COc1ccc(N/C(=N\c2nc(C)cc(C)n2)NC(C)=O)cc1OC	-2.5	0.2	-1.7	-6.8	-1.5	-4.4	-0.5	-13.6
CC(C)(C)c1cc(NC(=O)c2c(F)cccc2Cl)n(-c2ccccc2)n1	/	0.6	2.4	-0.6	-6.0	1.0	2.6	8.7
Cc1cc(OCc2ccc(C(=O)NN=C3CCCC3)cc2)ccc1Cl	-4.6	-2.0	-11.9	0.1	0.6	-3.1	-0.9	-28.5
CCOC(=O)c1cc[n+](CC(=O)c2ccc(F)cc2)cc1	-2.5	2.6	-2.6	2.0	-3.2	-2.6	0.2	-2.8
Cc1cc2oc(C(=O)NCCc3ccc(S(N)(=O)=O)cc3)c(C)c2cc1C	2.4	-1.5	7.6	/	-0.8	-0.3	-0.3	19.7
CC(C)C(NC(=O)c1ccccc1)C(=O)N/N=C\c1ccco1 (configuration not stated)	-6.0	/	-1.8	0.1	1.6	0.9	0.5	-7.6
Cc1ccc(-n2c(N)c(C(=O)N3CCOCC3)sc2=S)cc1	1.5	9.4	-28.9	3.1	-0.7	1.5	1.1	-12.1
COC(=O)c1ccc(SCC(=O)N2CCC(C)CC2)c([N+](=O)[O-])c1	-9.3	4.5	-5.3	1.2	-2.2	-2.4	-0.5	19.4
COc1cccc2[nH]c(C(=O)NCC3CCCO3)cc12 (configuration not stated)	-8.8	-33.2	1.4	2.4	-4.7	8.2	0.5	-8.6
COCCNC(=O)c1cc2nc(-c3ccc(F)cc3)cc(C(F)(F)F)n2n1	2.5	-2.3	-2.2	2.7	1.6	0.8	0.7	-5.9
COc1ccc(C)cc1S(=O)(=O)NC1CCCCC1	/	1.6	5.7	6.1	-0.3	0.6	-0.5	-8.6
N#Cc1ccc(CSc2nnc(-c3cccs3)n2-c2ccccc2)cc1	-10.9	1.3	10.0	-3.1	-1.1	-0.3	-0.7	41.7
CC(=O)Nc1nc(C)c(Oc2ccc(Cl)cc2)c(=O)[nH]1	-0.5	2.8	-19.9	?	1.9	10.5	0.7	2.8
COc1ccc(-c2sc3cc4c(cc3c2-c2ccc(OCCN3CCOCC3)cc2)OCO4)cc1	7.7	/	/	/	-259.9	13.6	-0.4	/
COc1ccc(S(=O)(=O)N2CCCC2)c(Cl)c1Cl	-1.9	3.1	-12.0	4.5	-3.5	2.9	0.7	-21.5
COc1cc(/C=C/C(=O)Nc2nnc(CC(C)C)s2)cc(OC)c1OC	-9.3	-348.8	1.0	1.4	5.4	2.2	0.0	-4.9
CCN(c1cccc(C)c1)S(=O)(=O)c1cn(CC(=O)OC)c2ccc([N+](=O)[O-])cc12	-12.6	5.6	-14.3	1.4	-0.1	19.7	0.6	5.6
More results follow:
SMILES	Beta apoptosis	UCH37 inh	T cruzi repl	RanGTP-Imp inh	LANA-H2B inh	Beta2AR agonist	Bfl-1 A1 inh	Calb FLC
CC(C)NC(=O)CN1C(=O)C(C)(C)Oc2ccc(C(=O)NC3CCCCC3)cc21	-8.1	-1.2	-15.5	3.0	-2.5	-1.4	-0.2	-7.8
Cc1cccc(N2CC(C)Cn3c2nc2c3c(=O)[nH]c(=O)n2C)c1 (configuration not stated)	-0.2	3.5	-8.6	5.0	5.4	-0.8	0.1	-0.2
CCOC(=O)c1sc(-c2ccc(Cl)cc2)nc1O	-2.6	-13.5	9.1	-19.2	11.0	-1.5	-0.9	-1.9
Cc1cc(C)c(NC(=O)C2CCN(c3cnccn3)CC2)c(C)c1	-5.5	-7.3	13.9	-6.6	0.6	4.0	0.0	3.1
CCOC(=O)CSc1nc2ccccc2c(=O)n1CC1CCC(C(=O)NCc2ccco2)CC1 (configuration not stated)	5.0	-0.9	-16.6	-0.5	-1.8	4.1	0.8	-6.7
CCn1c(SCC(=O)NCC2CCCO2)nnc1-c1c[nH]c2ccccc12 (configuration not stated)	-0.9	2.9	18.2	4.9	-5.9	-8.2	0.9	-4.0
COc1ccc2[nH]cc(C(=O)CCl)c2c1	-68.0	0.8	60.9*	0.3	-14.3	37.6	2.5	55.7
NC(=O)C(=O)NN=C1CCC(c2ccccc2)CC1 (configuration not stated)	-9.7	-0.3	5.9	-1.6	-5.4	-0.1	-0.6	-6.2
O=C(CSc1nc(-c2ccccc2)c(-c2ccccc2)[nH]1)NCC1CCCO1 (configuration not stated)	-5.1	-1.7	3.7	5.7	1.9	7.3	-0.1	4.4
CC(C)N1CCC(N2CCN(Cc3cccnc3)CC2CCO)CC1 (configuration not stated)	-4.1	0.0	3.8	4.9	-1.0	-14.5	0.3	-2.4
O=C(CSc1n[nH]c(-c2ccc(Br)cc2)n1)N1CCOCC1	9.8	1.2	/	/	2.1	5.7	-0.4	/
Cc1csc(SCC(=O)NC2CCCC2)n1	0.0	0.4	/	/	-0.1	-5.0	1.1	/
CCOC(=O)N1CCN(C2CCCN(C(=O)c3ccccc3SC)C2)CC1 (configuration not stated)	-4.6	2.7	-8.8	-0.3	4.1	-2.3	-0.5	-10.6
COc1ccccc1NC(=O)c1cnc2n(c1=O)CCS2	-7.4	7.9	-3.8	?	1.6	-8.9	0.7	2.7
CN(C)/C=N/c1cc(=O)[nH]c(=O)n1Cc1ccccc1	-0.2	/	-6.9	-1.2	0.8	-0.1	-1.0	-2.0
CC(=O)NC(=S)Nc1ccc(NC(=S)NC(=O)/C=C/c2ccco2)cc1	20.9	4.6	-5.2	0.4	-5.8	-4.2	-0.5	-6.0
S=C(NCCCN1CCOCC1)Nc1cccc(-c2nnc3n2CCCCC3)c1	-1.8	0.5	-9.9	5.3	3.7	2.1	0.6	-7.3
COc1ccc(NC(=O)N2CCC(C(=O)c3ccc4c(c3)OCCO4)CC2)cc1	1.3	-1.7	-0.1	-3.0	-4.5	2.1	1.0	-12.5
CC(=O)NC1CC2CCCC(C1)N2S(=O)(=O)c1ccccc1 (configuration not stated)	1.8	1.5	2.7	-1.6	1.9	3.0	0.7	2.4
COc1cc(C(=O)Nc2cccc(S(=O)(=O)N3CCCC3)c2)c([N+](=O)[O-])cc1OC	-1.4	4.6	2.4	-0.3	-2.3	-5.3	-0.7	-8.6
CC(C)CCOC(=O)C1[C@H]2C(=O)N(Cc3cccs3)C[C@]23C=C[C@H]1O3 (some centres not stated)	0.3	1.6	-6.2	4.9	2.8	32.5	-0.4	-12.7
CC1CC2(C)Oc3ccccc3CC2C(C)C1CNCCCN(C)C (configuration not stated)	21.4	1.6	51.0	-1.0	-3.9	42.1*	0.6	-10.0
CCN1CCN(CCCN(Cc2ccco2)C(=S)Nc2ccccc2Cl)CC1	-4.4	2.0	-6.8	0.0	2.2	10.0	0.9	-3.3
Cc1nn(-c2ccccc2)c(C)c1NC(=O)COC(=O)Cc1cccc(C(F)(F)F)c1	-1.2	2.8	1.2	/	-21.6	1.1	1.4	1.5
O=C(CS(=O)c1ccc(F)cc1)N1CCOCC1 (configuration not stated)	-3.1	3.7	-26.0	1.1	-1.5	-9.6	0.2	7.8
Following part
SMILES	Beta apoptosis	UCH37 inh	T cruzi repl	RanGTP-Imp inh	LANA-H2B inh	Beta2AR agonist	Bfl-1 A1 inh	Calb FLC
O=C(CCCOc1ccccc1)Nc1cccc(S(=O)(=O)N2CCCCC2)c1	-1.9	1.2	/	/	1.5	-1.2	0.7	/
COc1ccc(/C=N/Nc2ccc(C(=O)O)cc2)cc1OC	-4.2	/	-8.0	-1.2	-1.4	-0.4	-7.3	-8.8
Cc1nc2ccc(NS(=O)(=O)c3ccc(C)c(C)c3)cc2s1	28.4	1.7	-8.4	?	0.3	-6.3	0.0	4.8
Cc1ccc(S(=O)(=O)NNC(=O)c2cnn(-c3ccc(Cl)cc3)c2C(F)(F)F)cc1	0.3	1.0	-10.6	6.9	3.2	-3.4	0.7	5.5
O=C(O)c1ccccc1C(=O)NCC(O)COCC1CC=CCC1 (configuration not stated)	-7.2	1.5	-7.2	0.2	-0.5	-5.2	0.0	-5.5
CCc1nnc(SCC(=O)Nc2ccc3ccccc3c2)n1N	-1.1	0.4	/	/	4.2	-4.0	1.2	/
COc1ccc(-c2csc(NC(=O)/C(N=Nc3ccccc3)=C(\C)O)n2)cc1	-2.4	5.5	3.3	9.8	-3.3	/	-1.0	2.7
O=C(/C=C/c1ccccc1)Nc1cccnc1	-3.6	5.7	-8.8	4.4	-5.5	-0.7	4.6	-0.7
O=C(NC(c1ccccc1)c1ccccc1)c1ccc(CO)cc1	1.3	-0.2	-1.1	0.4	7.6	-4.2	-0.1	2.8
CCN(CC)c1cc(CS(=O)c2ccccc2)nc(-c2ccccc2)n1 (configuration not stated)	4.0	1.9	14.4	-1.1	1.7	12.0	-0.2	0.4
O=C(CSc1ccc([N+](=O)[O-])cn1)Nc1ccc2[nH]c(=O)[nH]c2c1	-2.0	3.6	-7.4	0.2	5.1	0.5	0.7	-15.2
CC(C)c1cc(C(=O)O)on1	3.1	-1.0	-12.3	?	-1.1	2.1	1.2	-1.4
O=c1oc(-c2ccco2)nc2sc3c(c12)CCCC3	-6.3	-25.0	0.1	-2.4	1.6	1.3	-6.7	35.2
O=C(CCSc1nc(-c2ccco2)cc(C(F)(F)F)n1)NCc1cccs1	-0.3	-0.5	18.6	8.4	0.8	-0.5	-0.4	1.4
COc1cc(C(=O)OCC(=O)NC(N)=O)cc(CN2C(=O)c3ccccc3C2=O)c1OC	-5.2	2.2	-6.0	-5.0	2.3	9.5	0.0	/
